LASV entry inh – blocks Lassa virus binding to or entry into cells; Lassa virus pseudotype entry inhibition, cell reporter; control for the full effect not named in the record; Potency, µM (doses to about 37.9 µM), inactives show at the highest dose activity change, negative = inhibition, most hits filed as inhibitors; 300,000 compounds, 1.2% hits; active means well fitted inhibition curve with a large enough effect; inconclusive means small, poorly fitted or top-dose-only effect, or effect the other way; inactive means flat fitted curve, though single readings scatter; tested in HEK293 cells; note: % is set by controls: 0 for no effect and ±100 for the full control effect; nearly all actives have a fitted effect of over 50% in size; luciferase read-out
RE007 growth inh – less growth of the S. pombe RE007 Vpr strain; Potency, µM (top dose mostly 92.2 µM), for the others: at the top dose activity change, negative = less growth; S. pombe RE007 Vpr strain, BacTiter-Glo ATP luminescence, 24 h; control for the full effect not named in the record; 360,000 compounds, 0.21% hits; AID 651644; active = well fitted falling curve with a large enough effect; inconclusive = small, poorly fitted or top-dose-only effect; inactive = no such curve, though single readings can be large or run the other way;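 note: % is set by controls: 0 for no effect and ±100 for the full control effect; nearly all actives have a fitted effect of over 50% in size; the assay follows cell death caused by Vpr and the record does not say whether a fall means rescue or toxicity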
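Fission yeast RE007 carrying one integrated HIV-1 vpr copy, seeded at OD 0.01 in PMG+AL medium with 23 nL pinned compound. Grown 24 h at 30 degrees; viability read by BacTiter-Glo luminescence after 5 min.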
Marburg entry inh – Marburg virus entry inhibition | Marburg virus pseudotyped entry inhibition, cell reporter; control for the full effect not named in the record; about a third of the inactives were read at about 46 µM | Potency, µM (series often up to 37.8 µM), for the others: top-dose activity change, negative = inhibition, usual class: inhibitors | 300,000 compounds, 1.8% hits | AID 540276; active = well fitted inhibition curve with a large enough effect; inconclusive = small, poorly fitted or top-dose-only effect, or effect the other way; inactive = flat fitted curve, though single readings scatter; tested in HEK293 cells; about a fifth of its hits are not listed in these tables; note: % is set by controls: 0 for no effect and ±100 for the full control effect; luciferase read-out
NS1 inh – influenza NS1 inhibition; 270,000 compounds, 0.4% hits; S. cerevisiae slowed by influenza A NS1, growth recovery by OD600; Potency, µM (titrated, usually from 46.1 µM), for inactives: at the top dose activity, positive = more growth; active means well fitted rising curve with a large enough effect; inconclusive means small, poorly fitted or top-dose-only effect; inactive means no such curve, though single readings can be large or run the other way; note: nearly all actives have a fitted effect of over 50% in size
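Growth recovery, yeast-based: influenza A NS1 expressed in S. cerevisiae causes slow growth, and suppressors are detected by OD600. The parent strain without NS1 is used as positive control.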
Cruzain Triton – blocks cruzain activity in presence of Triton detergent; Potency, µM, for inactives: max response, negative = inhibition, hits mostly inhibitors; 200,000 compounds, 0.43% hits; purified cruzain, Z-FR-AMC fluorescence, 0.01% Triton;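 note: plate controls were neutral wells for no effect and buffer without enzyme for full effect; nearly all actives have a fitted effect of over 40% in size; top concentration of the series not given in the record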
Target sequence (P25779 123-467 limits assumed): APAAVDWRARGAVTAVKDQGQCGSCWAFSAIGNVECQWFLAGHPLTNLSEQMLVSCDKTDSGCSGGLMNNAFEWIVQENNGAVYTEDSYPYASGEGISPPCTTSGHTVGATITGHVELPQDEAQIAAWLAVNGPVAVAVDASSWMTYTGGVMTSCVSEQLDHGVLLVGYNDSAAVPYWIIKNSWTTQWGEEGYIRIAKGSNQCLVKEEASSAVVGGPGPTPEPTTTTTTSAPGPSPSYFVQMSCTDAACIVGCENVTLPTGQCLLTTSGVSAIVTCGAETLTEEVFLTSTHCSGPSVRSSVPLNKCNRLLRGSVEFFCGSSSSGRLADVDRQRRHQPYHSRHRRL
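Detergent-containing run (0.01% Triton X-100) in acetate buffer pH 5.5 with 5 mM DTT: enzyme at 1.5 nM final, 15 min compound preincubation at room temperature, then 2 uM Z-FR-AMC substrate. Activity taken as 60 s fluorescence increase at 360/450 nm.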
Cruzain noTriton – cruzain (T. cruzi) inhibition without detergent. 200,000 compounds, 2.3% hits. Potency, µM, inactives show max response, negative = inhibition, actives largely listed as inhibitors. purified cruzain, Z-FR-AMC fluorescence, no detergent. AID 1476;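 note: plate controls were enzyme without inhibitor for no effect and buffer without enzyme for full effect; nearly all actives have a fitted effect of over 40% in size; top concentration of the series not given in the record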
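Purified cruzain at 1.5 nM, pre-incubated 15 min with compound at room temperature in 100 mM sodium acetate pH 5.5, 5 mM DTT, 0.00005% Triton X-100. Reaction started with 2 uM Z-FR-AMC; AMC fluorescence increase over 60 s gives rate.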
StopGo reporter – FMDV 2A StopGo reporter, luciferase signal; 410,000 compounds, 1.2% hits; AID 1159524; Potency, µM (doses to about 57.9 µM), without a hit: top-dose signal change, negative = less light; human cells with a luciferase reporter of 2A StopGo recoding; control for the full effect not named in the record; active = well fitted falling curve with a large enough effect; inconclusive = small, poorly fitted or top-dose-only effect; inactive = no such curve, though single readings can be large or run the other way; tested in HEK293T cells; note: % is set by controls: 0 for no effect and ±100 for the full control effect; nearly all actives have a fitted effect of over 45% in size; luciferase light after 4 h
SARS PLP yeast – blocks SARS-CoV papain-like protease in a yeast assay; S. cerevisiae expressing SARS-CoV PLpro, growth rescue; control for the full effect not named in the record; Potency, µM (doses to about 32.9 µM), inactives show top-dose activity, positive = growth rescue; 330,000 compounds, 0.19% hits; AID 485353; active means well fitted rising curve with a large enough effect; inconclusive means small, poorly fitted or top-dose-only effect; inactive means no such curve, though single readings can be large or run the other way; note: 0% is about no effect; nearly all actives have a fitted effect of over 55% in size; growth read by luminescence after 48 h
Numbers without * were called inactive; u = inconclusive; x = no result given; & = joins results of further samples; [ ] = dose if it differs, or a comment. Unless noted, calls come from the whole dose curve; as a rule, active = well fitted curve in the direction sought with a large enough effect; inconclusive = small, poorly fitted or top-dose-only effect, or another doubt; inactive = no such curve, though single readings can be large; an effect the other way counts as inactive or inconclusive. Potency is the fitted concentration of half-maximal effect.

The first 2 records as a preview:
Structure,Cruzain Triton,NS1 inh,StopGo reporter,Marburg entry inh,LASV entry inh,Cruzain noTriton,SARS PLP yeast,RE007 growth inh
Cn1c(C(O)c2ccc(Cl)cc2)nc(Cl)c1Cl (configuration not stated),-2.7%,-33%,-10%,0%,2%,16%,-7%,-1%
C=CCOc1ccc(C2C(C(=O)c3cccs3)=C(O)C(=O)N2c2nnc(C)s2)cc1 (configuration not stated),x,x,22%,14%,-3%,x,x,1%

The whole of this part, from the start:
Structure,Cruzain Triton,NS1 inh,StopGo reporter,Marburg entry inh,LASV entry inh,Cruzain noTriton,SARS PLP yeast,RE007 growth inh
Cn1c(C(O)c2ccc(Cl)cc2)nc(Cl)c1Cl (configuration not stated),-2.7%,-33%,-10%,0%,2%,16%,-7%,-1%
C=CCOc1ccc(C2C(C(=O)c3cccs3)=C(O)C(=O)N2c2nnc(C)s2)cc1 (configuration not stated),x,x,22%,14%,-3%,x,x,1%
COc1ccc(CC(=O)NCC2CCCN(Cc3cccc(SC)c3)C2)cc1 (configuration not stated),x,2%,-8%,u,-12%[46.1 µM],x,-1%,-6%
CC(=O)c1c(C)[nH]c(C(=O)N2CCN(c3cc(Cl)ccc3C)CC2)c1C,-3.8%,-1%,u,7.3µM*,6.5µM*,u,3%,4%
O=C(O)/C=C/C(=O)Nc1ccc(-c2ccccc2)cc1,x,1%,45%[activator],x,x,x,-5%&-4%,u
Cc1cccc(-n2nc(C)c3c2NC(=O)CSC3c2ccccc2Cl)c1 (configuration not stated),-4.7%,x,0%,u,-26%[46.1 µM],-4%,x,x
CN1CCC(N(C)c2ncnc3ccc(Br)cc23)CC1,-7.5%,2%,-28%,-5%[46.1 µM],-3%,-11%,2%,10%
CCc1ccc(CSc2nc(-c3ccc(OC)cc3)nc3c2Cc2c(CO)cnc(C)c2O3)cc1,-0.6%,x,-5%,x,2%[46.1 µM],10%,x,x
CCCCC1(CC)SCC(=O)NC1=O (configuration not stated),x,x,-15%,20%,17%,x,x,-14%
C[C@@H](CSc1ccccc1)CN1CC[C@H](C(C)(C)C)CCC1=O,x,-67%,-17%,x,x,x,1%,3%
O=C(O)C/C(=C\c1cc(Cl)c2c(c1)OCO2)c1nc2ccccc2s1,x,5%,10%,6%[46.1 µM],12%[46.1 µM],x,-5%,5%
COc1cc(Cn2c(=O)sc3ccccc32)ccc1OCCC(C)C,-8.9%,x,-8%,1%[46.1 µM],0%[46.1 µM],-6%,x,x
CN1CCN(c2nc(-c3ccccc3O)nc3ccccc23)CC1,x,-4%,-23%,17%[46.1 µM],-13%,x,-1%,12%
O=C(COC(=O)CNC(=O)c1cccc(F)c1)NCCC1=CCCCC1,16µM*,5%,-21%,7%,16%,13µM*,-19%,-3%
CCOc1ccc(N2C(=O)CC(=O)NC2=O)cc1,x,21%,-3%,4%,0%,x,-7%,-10%
Cc1ccccc1OCC(=O)Nc1c(C)ccc2nsnc12,-1.0%,x,-26%,-21%[46.1 µM],-4%[46.1 µM],-6%,x,x

One compound at a time, as listed above. Values in the order: Cruzain Triton, NS1 inh, StopGo reporter, Marburg entry inh, LASV entry inh, Cruzain noTriton, SARS PLP yeast, RE007 growth inh
Cc1ccccc1OCC(=O)Nc1c(C)ccc2nsnc12 across the screens: -1.0%, x, -26%, -21%[46.1 µM], -4%[46.1 µM], -6%, x, x
CCCCC1(CC)SCC(=O)NC1=O (configuration not stated) across the screens: x, x, -15%, 20%, 17%, x, x, -14%

Next records follow:
Structure,Cruzain Triton,NS1 inh,StopGo reporter,Marburg entry inh,LASV entry inh,Cruzain noTriton,SARS PLP yeast,RE007 growth inh
C=CCOc1ccc(C=Nc2cccc(Cl)c2)c(O)c1,-0.4%,15%,-24%,-1%,7%,-18%,9%,3%
Cc1nc(N2CCOCC2)nc(Oc2ccccc2F)c1[N+](=O)[O-],x,-49%,-17%,4%,-10%,x,0%,-13%
COc1ccc2c(c1)c(C(C)=O)c(C)n2CCc1ccc(OC)c(OC)c1,x,-6%,u,x,x,x,3%,-3%
CCN(CC)S(=O)(=O)c1cccc(C(=O)N[C@H](C(=O)NCc2ccccc2F)C(C)C)c1,1.5%,1%,3%,-29%,-28%,7%,2%,2%
Cc1cccc(NC(=O)C2CCCN(S(=O)(=O)c3cnc[nH]3)C2)c1C (configuration not stated),2.0%,x,6%,1%[46.1 µM],2%[46.1 µM],9%,x,x
Cc1cc(C)n2nc(CNS(=O)(=O)c3c(F)c(F)c(F)c(F)c3F)nc2n1,x,2%,-2%,x,x,x,-2%,-4%
NC(=O)c1ccc(-c2nnn(CC(=O)N(C3CCCCC3)C3CCS(=O)(=O)C3)n2)cc1 (configuration not stated),x,x,4%,u,4%,x,1%,-25%
COc1ccc2c(Sc3ccc(Cl)cc3)c(C(=O)NCCCN3CCCCC3)[nH]c2c1,-9.5%,x,-1%,u,-19%[46.1 µM],-13%,x,x

Part of the list above, with two lines to a compound:
Results follow in this order: Cruzain Triton, NS1 inh, StopGo reporter, Marburg entry inh, LASV entry inh, Cruzain noTriton, SARS PLP yeast, RE007 growth inh
Cc1nc(N2CCOCC2)nc(Oc2ccccc2F)c1[N+](=O)[O-]
 : x, -49%, -17%, 4%, -10%, x, 0%, -13%
COc1ccc2c(c1)c(C(C)=O)c(C)n2CCc1ccc(OC)c(OC)c1
 : x, -6%, u, x, x, x, 3%, -3%

Continuation:
Structure,Cruzain Triton,NS1 inh,StopGo reporter,Marburg entry inh,LASV entry inh,Cruzain noTriton,SARS PLP yeast,RE007 growth inh
COC(=O)c1ccc(NC(=O)c2cc(S(=O)(=O)N3CCOCC3)cn2C)cc1,-2.7%,x,-2%,x,11%[46.1 µM],12%,x,x
CN(C)c1ccc(C(=S)Nc2ccccc2)cc1,-7.2%,3%,12%,14µM*,u,4%,-3%,-2%
CCc1ccccc1NC(=O)NC(CC)Cn1nnc2ccccc2c1=O (configuration not stated),-2.3%,x,-19%,17%[46.1 µM],u,-7%,x,x
Cc1ccc(C)c(C(C)NC(=S)NC2CCCCC2)c1 (configuration not stated),x,-74%,-11%,u,2%[46.1 µM],x,-4%,5%
Nc1oc2ccc(F)cc2c(=O)c1C=O,-5.4%,6%,6%,u,u,17%,-6%,-11%
O=C(NCCNC(=O)c1ccco1)c1cccc(F)c1,0.0%,-1%,-29%,16%,-4%,2%,-3%,-9%
COc1ccc(N2CCN(C(=O)c3c(C)oc4ncn(CC(C)C)c(=O)c34)CC2)cc1,-2.1%,x,-24%,x,0%[46.1 µM],-9%,x,x
CC1Cn2c(CCc3ccccc3)nnc2S1 (configuration not stated),2.5%,4%,x,13%,2%,-14%,5%,4%
Cc1cc(C)n2nc(C(=O)OCC(=O)Nc3cc(S(=O)(=O)N4CCOCC4)ccc3Cl)nc2n1,x,x,-11%,25%,3%,x,x,6%
O=C1OC(N2CCN(C(=O)c3ccco3)CC2)c2ccccc21 (configuration not stated),-1.3%,1%,-23%,-2%[46.1 µM],-16%,-10%,0%,-8%
COc1ccc(S(=O)(=O)N2CCC(NC(=O)c3cccnc3)CC2)cc1,x,1%,-4%,-2%[46.1 µM],13%[46.1 µM],x,3%,2%
CCc1cccc(C)c1NC(=O)c1ccc2nc(N3CCOCC3)sc2c1,x,-12%,-17%,x,x,x,-6%,3%
CCOC(=O)C1CCCN(CCC(=O)Nc2ccc3c(c2)CCC3)C1 (configuration not stated),15%,0%,x,-10%,-15%,5%,-2%,7%
Cc1ccc2c(N)c(C)ccc2c1,0.2%,-1%,11%,-2%[46.1 µM],14%,0%,-10%,u
Nc1nnc(/C=C/c2ccccc2Cl)s1,x,-3%,24%,7.1µM*,u,x,0%,-19%
COc1cccc(C(=O)NNC(=O)Cc2ccc(Cl)cc2)c1,-2.1%,16%,-8%,-8%,-9%,0%,-1%,18%
CC(C)(C)OC(=O)N1CCC(c2c(C(=O)N3CCC(c4ccccc4)C3)cnn2-c2cccc(Cl)c2)CC1 (configuration not stated),-6.4%,x,-29%,x,u,u,x,x
CCCc1nnc(NC(=O)COC(=O)c2cc(C)nc3ccccc23)s1,-6.3%,3%,x,-13%,-1%,-3%,1%,-9%
O=C(COC(=O)c1ccc(Br)o1)Nc1ncc(Cl)cc1Cl,x,x,-19%,u,11%[46.1 µM],x,0%,-10%
Cc1cc(C)n2nc(N)c(N=Nc3ccc(Cl)cc3)c2n1,-1.8%,6%,6%,u,u,-11%,-11%,-1%
CCOc1ccc(N(CC(=O)Nc2cccc(N(C)S(C)(=O)=O)c2)S(=O)(=O)c2ccccc2)cc1,-2.6%,u,16%,u,u,u,3%,11%
COc1cc(OC)cc(C(=O)OCC(=O)Nc2nnc(-c3ccccc3)o2)c1,x,x,-14%,1%[46.1 µM],14%,x,x,8%
O=C(Cn1nnc(-c2ccccc2F)n1)Nc1ccc2c(c1)OCCO2,x,11%,39%[activator],12%[46.1 µM],u,x,-2%,-25%
COc1ccc(/C=C(\C#N)C(=O)NC2CCS(=O)(=O)C2)cc1OC (configuration not stated),0.7%,17%,-17%,25%,4%,5%,-1%,14%
O=C(CSc1ncccc1-c1nc2ccccc2[nH]1)N1CCCCC1,-6.5%,-8%,12%,-3%,5%,-2%,-1%,-4%
CN(C(=O)COC(=O)c1cc([N+](=O)[O-])ccc1Cl)c1ccccc1,x,-2%,-12%,-14%[46.1 µM],-8%,x,-1%,-11%
CN1CCN(CC(O)COc2ccc(C34CC5CC(CC(C5)C3)C4)cc2)CC1 (configuration not stated),x,-6%,-9%,u,3%,x,-2%,17%
Cc1ccc(C)c(OCC(=O)N2CCc3ccccc3C2)c1,x,-24%,23%,x,x,x,-2%,9%
O=C(Nc1cccnc1)C1CCCN(S(=O)(=O)c2ccccc2)C1 (configuration not stated),5.0%,7%,-34%,-24%,5%,3%,0%,6%

Screening data as filed in PubChem.
